Sa growth 42C – blocks Staphylococcus aureus growth. AID 720641. S. aureus RN4220 growth, OD600, 20 h, 42 °C; hits give low values. relative growth, % (test concentration not listed). 170,000 compounds, 0.53% hits;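 active = growth at 42 °C up to 50% and 20 or more points under that at 30 °C, or under 10% at both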;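 note: 300 nL library stock went into each well; scaled to the means of positive and negative controls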
HCMV UL50-53 inh – cytomegalovirus nuclear egress complex inhibition; AID 1918969; inhibition, % (no concentration beside the values); 190,000 compounds, 0.15% hits; HTRF UL50-UL53 interaction, normalized percent inhibition;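 active = both replicates at 50% or more, plus weaker picks with an unusually low signal ratio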;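 note: stock transfer was 100 nL into about 20 µL; 0% = negative control wells and 100% = wells with untagged competitor protein; inactives centre near -12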
GIV Gai3 FP – GIV-Galpha-i interaction inhibition | P08753 | Galpha-i3/FITC-GIV peptide fluorescence polarization, 90 min; hits give low values; scaled: aluminum fluoride 0%, vehicle 100% | percent of control (FP), % (no concentration beside the values) | 210,000 compounds, 0.42% hits | AID 1224905;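 active = replicate mean at 85% of control or lower, very high polarization wells dropped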;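 note: wells of about 15 µL received 100 nL stock; the first replicate is given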
Target sequence (P08753 whole entry, looked up): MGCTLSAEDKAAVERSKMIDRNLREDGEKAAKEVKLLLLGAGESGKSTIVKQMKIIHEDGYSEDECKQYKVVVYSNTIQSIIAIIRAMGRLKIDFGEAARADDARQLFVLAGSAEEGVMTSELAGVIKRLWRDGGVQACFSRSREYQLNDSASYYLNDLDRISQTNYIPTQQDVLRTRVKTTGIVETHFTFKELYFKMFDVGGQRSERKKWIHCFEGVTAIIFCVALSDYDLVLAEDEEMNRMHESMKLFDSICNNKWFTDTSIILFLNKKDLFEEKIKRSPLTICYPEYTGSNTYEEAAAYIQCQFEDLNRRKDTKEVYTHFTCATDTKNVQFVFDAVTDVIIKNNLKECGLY
Sa growth 42C second temp – further read-out of Sa growth 42C, marked with its call; relative growth, %; measured here: growth at 30 °C;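 optical density after 20 h as mean of two plates; 100% = untreated growth and lower means inhibition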
The depositor's hits bear a star; . = not tested or not shown; & = joins results of further samples.

Preview, two compounds:
SMILES	Sa growth 42C	Sa growth 42C second temp	HCMV UL50-53 inh	GIV Gai3 FP
Cc1sc(=[N+]2CCCCC2)sc1SCCC(=O)O	96	88	-31	.
CCn1nc(C)c(CCN(C)C(=O)Nc2cc(C)cc(C)c2)c1C	85	87	8	99&107

This part in full, from the start:
SMILES	Sa growth 42C	Sa growth 42C second temp	HCMV UL50-53 inh	GIV Gai3 FP
Cc1sc(=[N+]2CCCCC2)sc1SCCC(=O)O	96	88	-31	.
CCn1nc(C)c(CCN(C)C(=O)Nc2cc(C)cc(C)c2)c1C	85	87	8	99&107
CCc1nnc(SC(CC)C(=O)Nc2cc(C)ccc2C)c2cc3occc3n12 (stereo not given)	98	76	.	116
COc1ccc(Cn2c(C(=O)O)c(CNC3CCCCC3)c3ccc(C)cc32)cc1	92	92	.	108
Cc1ccc(Cn2ccn(Cc3ccc(C)cc3)c(=O)c2=O)cc1	111	99	6	105
Cc1nn(-c2cc(N3CCCC3)ncn2)c(C)c1CCC(=O)NC1CCCC1	.	.	-25	99
CCN(CC)CCNC(=O)c1ccc(-c2nc(CS(=O)(=O)c3ccc(C)cc3)c(C)o2)cc1	137	88	.	102
COc1ccc(C)c2sc(N3CCN(C(=O)c4ccco4)CC3)nc12	82	72	.	96
O=C(COc1ccc(F)cc1)OCc1cc(=O)n2nc(C3CC3)sc2n1	89	77	.	113
Cc1cnn(C(=O)c2cc3ccccc3oc2=O)c1	115	104	-7	104
O=C(O)Cc1ccc(S(=O)(=O)N2CCCC2)s1	100	69	-10	.
Cc1ccccc1N1C(=O)C(Oc2ccc(Cl)cc2)C1CNC1CCCCC1 (stereo not given)	.	.	-20	99
Cc1ccc(OCCn2nnc3sc4c(c3c2=O)CCC(C)C4)cc1 (stereo not given)	99	90	-32	102
Cc1cc(N2CCC(C)CC2)nc2ccc(NC(=O)Cc3ccccc3Br)cc12	99	94	-9	95
COc1cc(S(=O)(=O)N2CCOCC2)cc(C(=O)c2nccn2C)c1OC	85	88	-14	.
COc1ccc(-c2noc(-c3ccc(OC)cc3)n2)cc1	107	79	.	102
CC1CCCN(C(=O)c2ccc3ncsc3c2)C1 (stereo not given)	102	98	-14	.
CC(NC(=O)CSc1cccc[n+]1[O-])c1ccccc1 (stereo not given)	96	81	-35	.
O=C(NCc1cccc(Cl)c1)c1nc2c(nnn2Cc2ccccc2)c(=O)[nH]1	71	84	.	95
O=C(NCCc1ccccc1)c1cc2ccccc2oc1=O	102	85	.	106
Cc1cccc(NC(=O)C2CCCN(S(=O)(=O)c3ccc4c(c3)CC(C)N4C(=O)C3CC3)C2)c1 (stereo not given)	.	.	-4	107
CCCn1cc(C2CC(=O)N(c3ccc(C)cc3)C2=O)c2ccccc21 (stereo not given)	.	.	21	106
COc1ccc(CN2C(=O)c3nc4ccccc4n3CC2(C)C(=O)NCCC(C)C)cc1 (stereo not given)	.	.	-29	106
CC(NC(=O)c1ccc(=O)n(C)n1)C1CC2CCC1C2 (stereo not given)	85	91	12	.
CCc1nnc(NC(=O)CN2C(=O)CC(C)(C)Sc3ccccc32)s1	98	87	4	100
COc1cc(OC)c2c(C)c(CC(=O)N3CCCCC3)c(=O)oc2c1	89	88	-24	96
O=C(C1CCCN(S(=O)(=O)c2ccc(Br)s2)C1)N1CCN(c2cccc(Cl)c2)CC1 (stereo not given)	104	84	-1	100
c1ccc(C2CCC(=NN3CCOCC3)CC2)cc1 (stereo not given)	99	96	-23	.
CCc1ccc(NC(=O)CCn2nc(C)c(S(=O)(=O)N3CCCCC3)c2C)cc1	115	97	.	104
O=C(CCN1C(=O)c2cccc([N+](=O)[O-])c2C1=O)NCc1ccco1	.	.	-82	97
COc1cccc(NC(=O)N2CCN(c3nc4cccnc4n(Cc4ccccc4)c3=O)CC2)c1	.	.	-31	110
CCCn1c(CCC(=O)N(C)c2ccccc2)nc2cc(S(=O)(=O)N3CCCC3)ccc21	68	89	-27	.
COc1ccccc1C1C=C(c2ccc(F)cc2)Nc2nc(-c3ccc(Cl)cc3)nn21 (stereo not given)	113	83	-5	108
Cc1ccc(CNC(=O)CCCCCn2c(=O)c3sccc3n(CC(=O)N3CCCCC3C)c2=O)cc1 (stereo not given)	96	94	-34	107
COC(=O)C(N)CSC1CCCCO1 (stereo not given)	100	91	-6	.
N#CCCn1nc(-c2ccccc2)c2ccccc2c1=O	98	73	-11	100
COc1ccc(Cn2ccn(Cc3cccc(OC)c3)c(=O)c2=O)cc1	94	92	-16	99
Cc1cnc(=O)[nH]c1SCC(=O)OCc1ccccc1	98	91	-17	105
O=C(Cn1nc(N2CCN(c3ccccc3)CC2)ccc1=O)NCc1ccc2c(c1)OCO2	.	.	-18	105
COc1ccc(C2NC(CC(C)C)(C(=O)O)C3C(=O)N(c4ccccc4OC)C(=O)C23)c(OC)c1 (stereo not given)	77	90	-34	97
CCOc1ccccc1NC(=O)Cn1c(=O)n(-c2ccc(Cl)cc2)c(=O)c2oc3ccccc3c21	99	88	.	99
O=C(NCCS(=O)(=O)c1ccc(Br)cc1)c1ccccc1	.	.	-8	100
c1cc2c(cc1-c1nn3cnnc3s1)OCO2	87	81	-45	100
CC(NC(=O)c1ccccc1)C(=O)O (stereo not given)	86	88	-10	.
CCCN1CCCc2ccccc21	79	77	-55	108
CCc1ccc(NC(=O)C2CCCN(S(=O)(=O)c3c(C)[nH]c(=O)[nH]c3=O)C2)cc1 (stereo not given)	86	101	-3	106
COc1ccc(-c2ocnc2C(=O)N2CCN(C(=O)C(c3ccccc3)c3ccccc3)CC2)cc1	100	72	-4	101
CCOc1cc2[nH]c(=O)n(CCC(=O)NCc3ccco3)c(=O)c2cc1OCC	90	88	-16	101
CCCCc1ccc(NC(=O)CN2C(=O)C=C(CC(=O)OC)Nc3ccccc32)cc1	.	.	-41	105
O=C(O)CCNc1ccc2c(c1)OCCO2	90	80	-19	103
N#Cc1c(F)cccc1Sc1ccc(Cl)cc1	106	88	-8	100
CSc1nnc(C2CC2)n1-c1cccc(Cl)c1	108	101	-3	102
O=C1CC(SCc2nc3ccccc3[nH]2)C(=O)N1c1ccc(Cl)cc1 (stereo not given)	88	62	-12	.
Cc1nc(-c2cccc(NC(=O)C3CC(=O)N(c4cccc(Cl)c4)C3)c2)no1 (stereo not given)	.	.	1	96
CCOC(=O)CSc1nnc(CN2C(=O)c3cccc4cccc(c34)C2=O)n1-c1ccccc1	.	.	-71	102
COc1ccccc1CN(C)CC(=O)NC1CCCc2ccccc21 (stereo not given)	96	93	-29	.
COc1cc(OC)c(N(C)C(=O)Cn2ncc3c([nH]c4ccccc43)c2=O)cc1Cl	108	93	.	107
Clc1ccc(-c2nc(CSc3ccccn3)cs2)cc1	102	104	-9	107
CC(CO)(CO)N=Cc1c(O)[nH]c(=O)[nH]c1=O	113	89	-9	107
CCNc1cc(Nc2ccc(Br)cc2)c([N+](=O)[O-])c2nonc12	.	.	-32	106

7 entries from above, with bars between the fields:
compound | Sa growth 42C | Sa growth 42C second temp | HCMV UL50-53 inh | GIV Gai3 FP
CCOc1ccccc1NC(=O)Cn1c(=O)n(-c2ccc(Cl)cc2)c(=O)c2oc3ccccc3c21 | 99 | 88 | . | 99
COc1cc(OC)c(N(C)C(=O)Cn2ncc3c([nH]c4ccccc43)c2=O)cc1Cl | 108 | 93 | . | 107
CC(NC(=O)c1ccccc1)C(=O)O (stereo not given) | 86 | 88 | -10 | .
COc1cc(S(=O)(=O)N2CCOCC2)cc(C(=O)c2nccn2C)c1OC | 85 | 88 | -14 | .
CC(CO)(CO)N=Cc1c(O)[nH]c(=O)[nH]c1=O | 113 | 89 | -9 | 107
Cc1cnc(=O)[nH]c1SCC(=O)OCc1ccccc1 | 98 | 91 | -17 | 105
N#CCCn1nc(-c2ccccc2)c2ccccc2c1=O | 98 | 73 | -11 | 100

Continuation:
SMILES	Sa growth 42C	Sa growth 42C second temp	HCMV UL50-53 inh	GIV Gai3 FP
CCOc1cc2[nH]c(=O)n(CCC(=O)N3CCN(c4cccc(Cl)c4)CC3)c(=O)c2cc1OCC	92	87	.	108
Cc1ccccc1NC(=O)C1CC(=O)Nc2nc3ccccc3n21 (stereo not given)	94	88	-16	97
COCCN=C1NN=C(c2ccc(F)cc2)CS1	85	95	-17	.
COc1cc2c(=O)n(Cc3ccc(C(=O)NC(C)C)cc3)c(=O)n(CC(=O)NCCC(C)C)c2cc1OC	.	.	-9	106
FC(F)(F)c1cccc(Nc2nc3ccccc3[nH]2)c1	109	97	-18	107
Cc1ccc(-n2c(=O)c3c(C)c(C(=O)N(C)C)sc3n(Cc3ccc(F)cc3Cl)c2=O)cc1C	93	88	.	110
CCn1c(CNC(=O)c2ccccc2F)nnc1SCC(=O)Nc1cccc(OC)c1	97	97	-8	95
CC(=O)N1CCc2cc(S(=O)(=O)CCC(=O)N(C)c3ccc(C)cc3)ccc21	86	89	.	100
O=C(CN1C(=O)c2ccccc2C1=O)Nc1ccccc1	108	94	-1	97
O=C1NCCCC1C(=O)N1CCN(C(=O)c2ccco2)CC1 (stereo not given)	94	94	12	109
CCc1nc2c(Cl)cc(Cl)cc2c(=O)o1	117	79	-6	103
COc1ccc(N2Cc3cccc(C(=O)NCC(OC)OC)c3C2=O)cc1	112	80	.	101
Cc1cc(C(=O)CCC(=O)NC2CC2)c(C)s1	85	103	20	.
N#CC(C#N)C(C#N)(C#N)CC(=O)C1CC2C=CC1C2 (stereo not given)	40	2	-34	134
CCN(CC)C(=O)C1CCCN(S(=O)(=O)c2ccc(OC)c(OC)c2)C1 (stereo not given)	88	95	-4	104
CC(C)c1ccc(C2c3c(-c4ccccc4O)n[nH]c3C(=O)N2CCc2ccccc2)cc1 (stereo not given)	95	84	-10	98
CC(=O)NN=C1CCCCCCC1	109	96	-4	100
O=c1[nH]c(=O)n(C2CCCCC2)c(O)c1/C=C1\C=Nc2ccccc21	110	101	.	110
Cc1ccc(-c2n[nH]c(=O)c3ccccc23)cc1	96	86	-11	.
Cc1ccc(NC(=O)COC(=O)CSc2nc3ccccc3n2Cc2ccccc2)c(C)c1	.	.	-19	101
CCN1C(=O)C2C=CC=CC2NC1=S (stereo not given)	103	98	3	.
COC(=O)C1=C(C)OC(N)=C(C#N)C1c1ccccc1 (stereo not given)	.	.	4	102
CCOc1ccc(NC(=O)N(CCN(C)C)C(C)c2cccnc2)cc1 (stereo not given)	107	105	2	109
CCOc1ccc(S(=O)(=O)Nc2nc3ccccc3nc2Nc2ccccc2)cc1	108	87	.	98
O=C(N/N=C/C1CC2C=CC1C2)c1ccccc1O (stereo not given)	113	91	8	.
Nc1ccc(Cc2ccccc2)cc1	95	66	2	107
Cc1nc2ccc(S(=O)(=O)N(CC(=O)Nc3ccc(F)cc3F)Cc3ccccc3)cc2s1	93	81	.	99
CCOc1ccc(C(c2c(O)cc(C)n(Cc3ccco3)c2=O)N2CCN(c3ccccc3)CC2)cc1 (stereo not given)	89	86	.	98
Cc1ccccc1OCC(=O)N1CCN(C=O)CC1	104	93	-5	107
COC(=O)CSc1nnc2n1CCN2c1ccc(F)cc1	.	.	-35	102
COc1cc(C(N)=O)cc(I)c1OC	99	109	2	107
COc1ccccc1N1CCN(C2CCN(C3CCCCC3)CC2)CC1	84	82	-24	99
O=C(CN1CCc2ccccc2C1)NCc1ccco1	96	88	-4	.
COc1ccc(N(CC(=O)N2CCc3ccccc3C2)S(=O)(=O)c2ccc(C)cc2)cc1Cl	110	90	-29	105
COc1ccc(S(=O)(=O)N2CCC3(CC2)Nc2cc(F)ccc2-n2cccc23)cc1OC	.	.	-7	104
CCC1CSC(Nc2c(C)cccc2C)=N1 (stereo not given)	77	79	-38	102
CCCCNS(=O)(=O)c1ccc(OCC)c(-c2nc(C)no2)c1	.	.	2	103
c1ccc(-c2cnc(SCCN3CCCCC3)nn2)cc1	97	70	-117	99
O=C(NCCN1CCCCC1)Nc1c[nH]c2c(Cl)cccc2c1=O	86	73	-3	103
COCCn1c(C)cc(C2=Nn3c(nnc3-c3ccccc3F)SC2)c1C	67	77	-34	.

Looked up by compound from above (2):
SMILES	Sa growth 42C	Sa growth 42C second temp	HCMV UL50-53 inh	GIV Gai3 FP
COc1cc(C(N)=O)cc(I)c1OC	99	109	2	107
O=C(CN1CCc2ccccc2C1)NCc1ccco1	96	88	-4	.

Continued.
SMILES	Sa growth 42C	Sa growth 42C second temp	HCMV UL50-53 inh	GIV Gai3 FP
COc1ccc(-c2nc3c(c(SCC(=O)Nc4cc(C)cc(C)c4)n2)Cc2c(CO)cnc(C)c2O3)cc1	99	88	.	104
O=C(Nc1nnc(C2CC2)s1)c1ccccc1	104	84	-23	103
CCN1CCN(c2ncnc3sc(C(=O)NCCc4c[nH]c5ccc(Cl)cc45)c(C)c23)CC1	.	.	-54	103
O=C(NN1C(=O)/C(=C/c2cc3c(cc2[N+](=O)[O-])OCO3)SC1=S)c1ccccc1Cl	.	.	-47	118

Screening results (PubChem)
